Screening results from PubChem BioAssay.
EPAC1 agonist: validation of human EPAC1 agonists | EPAC1 Rap1b BODIPY-GDP exchange, fluorescence | O95398 | Potency, µM, inactives show max response, positive = active, most hits filed as activators | 1% of 16,000 active; active means well fitted activation curve with a large enough effect; inconclusive means small, poorly fitted or top-dose-only effect; inactive means no such curve, though single readings can be large or run the other way;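 further: nearly all actives have a fitted effect of over 70% in size; series mostly up to about 76 or 150 µM; scaled to a cAMP control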
Target sequence (O95398 whole entry, looked up): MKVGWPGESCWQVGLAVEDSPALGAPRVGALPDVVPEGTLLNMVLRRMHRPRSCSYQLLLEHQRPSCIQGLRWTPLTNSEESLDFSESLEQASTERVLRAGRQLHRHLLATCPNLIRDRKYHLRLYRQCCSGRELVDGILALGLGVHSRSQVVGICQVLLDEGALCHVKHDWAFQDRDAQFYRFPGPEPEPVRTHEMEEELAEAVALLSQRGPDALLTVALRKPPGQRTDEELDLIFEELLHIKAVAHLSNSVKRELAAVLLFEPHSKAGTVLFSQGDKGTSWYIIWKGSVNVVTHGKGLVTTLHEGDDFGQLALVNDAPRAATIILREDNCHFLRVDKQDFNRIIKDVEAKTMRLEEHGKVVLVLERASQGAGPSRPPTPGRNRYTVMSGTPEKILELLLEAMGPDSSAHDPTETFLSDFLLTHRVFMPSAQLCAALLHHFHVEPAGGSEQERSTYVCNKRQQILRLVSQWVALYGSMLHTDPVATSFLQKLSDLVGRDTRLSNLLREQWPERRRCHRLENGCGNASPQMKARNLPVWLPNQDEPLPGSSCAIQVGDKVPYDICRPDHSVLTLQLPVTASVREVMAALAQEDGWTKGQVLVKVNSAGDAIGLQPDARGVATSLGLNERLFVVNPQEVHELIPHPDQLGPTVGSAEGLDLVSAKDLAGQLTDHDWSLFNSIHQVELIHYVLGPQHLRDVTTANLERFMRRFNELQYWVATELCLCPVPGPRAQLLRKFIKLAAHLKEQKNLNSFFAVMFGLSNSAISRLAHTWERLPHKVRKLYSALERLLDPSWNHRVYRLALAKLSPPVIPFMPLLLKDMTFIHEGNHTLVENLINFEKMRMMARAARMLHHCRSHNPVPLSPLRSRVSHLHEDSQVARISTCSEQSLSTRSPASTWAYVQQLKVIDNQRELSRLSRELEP
* = called active by the depositor; ? = inconclusive; & = joins results of further samples; [ ] = another dose, or the depositor's remark. On the % scale 0 is the no-effect control and ±100 the full control effect; potency means the concentration at half of the fitted maximal effect. Not all compounds are listed. The share of hits here may be higher or lower than overall.

mol	EPAC1 agonist
CC(C)C[C@H](NC(=O)[C@H](CCc1ccccc1)NC(=O)CN1CCOCC1)C(=O)N[C@@H](Cc1ccccc1)C(=O)N[C@@H](CC(C)C)C(=O)[C@@]1(C)CO1	-31.8%[inhibitor]
O=C(c1ccco1)N1CCC[C@@]2(CCN(Cc3nccs3)C2)C1	-63.4%[inhibitor]
COc1ccc(C(=O)C[n+]2ccccc2Cl)cc1	10.5%
O=C1/C(=C\c2cccs2)CCC/C1=C\c1cccs1	9.1%
COc1cccc(Cn2c(=O)c(CCc3ccccc3)nc3cnc(N4CCOCC4)nc32)c1	1.5%
O=C(NC1CCCC1)c1cn(C2CCCN(Cc3ccc4c(c3)OCCO4)C2)nn1 (stereo not drawn)	-0.7%
O=C(c1ccco1)N1CCC2(CC1)CCN(c1ccncc1)CC2	-58.4%[inhibitor]
COCCNc1ccnc(-c2c(C)noc2C)n1	-86.7%[inhibitor]
OCC1OC(n2cnc3c(Cl)nc(Cl)nc32)C(O)C1O (stereo not drawn)	-37.0%[inhibitor]
COc1cccc(C2(CC(=O)N3CCC(c4nc5ccccc5o4)CC3)CC(=O)N(C)C2=O)c1 (stereo not drawn)	-9.6%
Cc1ccccc1-c1nccc(-n2ccnc2)n1	11.2%
FC(F)(F)c1ccccc1-c1cncnc1NCCc1cnc[nH]1	16.7%
Nc1ccc(S(=O)(=O)NC(=O)c2ccccc2)cc1	-3.2%&2.9%
CC(CCC(=O)O)C1CCC2C3CC[C@H]4CC(O)CC[C@@]4(C)C3CC[C@@]12C (stereo partly drawn)	-26.4%
C[C@]12C=CC(=O)C=C1CC[C@@H]1[C@@H]2[C@@H](O)C[C@@]2(C)[C@H]1CC[C@]2(O)C(=O)CO	-20.4%
COCCn1c(=O)c(CCc2ccccc2)nc2cnc(OCc3ccccc3)nc21	-8.5%
COc1ccccc1-c1cncnc1NCCNC(C)=O	4.4%
CN(C)c1ccc(-c2ccc3ncnc(NCc4ccccc4)c3c2)cc1	20.3%
COc1cc2c(cc1C(F)(F)F)N(C(=O)Nc1cc(F)cc(-c3cccnc3)c1)CC2	-36.7%[inhibitor]
COc1ccc(Nc2ncc3nc(-c4cccs4)c(=O)n(Cc4cccc(OC)c4)c3n2)cc1	?
O=C1CCN(Cc2cccc(C(F)(F)F)c2)CCN1Cc1ccccn1	9.7%
Cc1ccccc1CN1CCc2nnc(C(C)NC(=O)C3CCN(C)CC3)n2CC1 (stereo not drawn)	-1.0%
Cc1cccc(-c2cc(=O)c3cc(Br)ccc3o2)c1	4.6%
OCc1ccccc1O	-15.2%
O=C([C@@H]1C[C@@H](Sc2nc3ccccc3[nH]2)CN1Cc1ccc(C(F)(F)F)cc1)N1CCN(c2ccccc2F)CC1	-12.6%
CC(C)ON([C@@H](C(=O)NO)C(C)C)S(=O)(=O)c1ccc(-c2ccccc2)cc1	8.0%
C/C=C(/CC[C@@H](C)[C@H]1CC[C@H]2C3=CC[C@H]4[C@H](C)[C@@H](O)CC[C@]4(C)[C@H]3CC[C@]12C)C(C)C	-53.9%[inhibitor]
COc1ccc(Oc2ncc3nc(C)c(=O)n(Cc4cccc(OC)c4)c3n2)cc1	?
N#CCCn1c(=O)c(CCc2ccccc2)nc2cnc(Oc3cccc(Cl)c3)nc21	-32.4%
Nc1ccc2nc[nH]c2c1	?
Cc1c(C(=O)NCc2ccccc2Cl)sc2ncnc(NCC3CCCO3)c12 (stereo not drawn)	1.3%
COc1ccc2[nH]cc(CCNc3ncnc4ccc(-c5cccc(C#N)c5)cc34)c2c1	23.6%
CCN(CC)CCNC(=O)c1c(C)[nH]c(/C=C2\C(=O)Nc3ccc(F)cc32)c1C	-29.1%
NC(=O)C1c2ccccc2CCc2ccccc21	-1.5%
CC(C)[N+]1(C)C2CCC1CC(OC(=O)C(CO)c1ccccc1)C2 (stereo not drawn)	-7.1%&23.0%
O=C(NCC1(N2CCOCC2)CCCCC1)c1cnn(-c2nccc(-c3cccs3)n2)c1C1CC1	26.4%
CCS(=O)(=O)N1CCC[C@H]2CN3CCc4cc(OC)ccc4[C@@H]3C[C@@H]21	-9.9%&-0.2%
O=S(=O)(c1cccc2c(I)cccc12)N1CCCNCC1	11.1%&-10.4%
CCN1CCCC1CNC(=O)c1cnn(-c2nccc(-c3cccs3)n2)c1C1CC1 (stereo not drawn)	-13.0%
COc1cc(-c2ccc(Cl)cn2)cc2c1OCCN(S(=O)(=O)C[C@]13CC[C@H](CC1=O)C3(C)C)C2	-7.7%

14 compounds from above, ordered by number of heavy atoms, descending:
mol	EPAC1 agonist
O=C([C@@H]1C[C@@H](Sc2nc3ccccc3[nH]2)CN1Cc1ccc(C(F)(F)F)cc1)N1CCN(c2ccccc2F)CC1	-12.6%
O=C(NCC1(N2CCOCC2)CCCCC1)c1cnn(-c2nccc(-c3cccs3)n2)c1C1CC1	26.4%
COc1cc(-c2ccc(Cl)cn2)cc2c1OCCN(S(=O)(=O)C[C@]13CC[C@H](CC1=O)C3(C)C)C2	-7.7%
COc1ccc2[nH]cc(CCNc3ncnc4ccc(-c5cccc(C#N)c5)cc34)c2c1	23.6%
N#CCCn1c(=O)c(CCc2ccccc2)nc2cnc(Oc3cccc(Cl)c3)nc21	-32.4%
COc1ccc(Oc2ncc3nc(C)c(=O)n(Cc4cccc(OC)c4)c3n2)cc1	?
CCN(CC)CCNC(=O)c1c(C)[nH]c(/C=C2\C(=O)Nc3ccc(F)cc32)c1C	-29.1%
Cc1c(C(=O)NCc2ccccc2Cl)sc2ncnc(NCC3CCCO3)c12 (stereo not drawn)	1.3%
CCS(=O)(=O)N1CCC[C@H]2CN3CCc4cc(OC)ccc4[C@@H]3C[C@@H]21	-9.9%&-0.2%
CC(C)[N+]1(C)C2CCC1CC(OC(=O)C(CO)c1ccccc1)C2 (stereo not drawn)	-7.1%&23.0%
O=S(=O)(c1cccc2c(I)cccc12)N1CCCNCC1	11.1%&-10.4%
NC(=O)C1c2ccccc2CCc2ccccc21	-1.5%
Nc1ccc2nc[nH]c2c1	?
OCc1ccccc1O	-15.2%

Additional structures follow:
mol	EPAC1 agonist
CCn1cc(CN2Cc3ccccc3OC(c3ccccc3OC)C2)c(C)n1 (stereo not drawn)	-10.9%
N#CCCn1c(=O)c(-c2ccccc2)nc2cnc(Oc3cccc(Cl)c3)nc21	-26.0%
Cc1cccc([C@@H]2CN(C)CCc3c2cc(O)c(O)c3Cl)c1	-8.0%
COc1ccccc1-c1ccnc(-n2ncc(C(=O)NCc3ccncc3)c2C)n1	-15.3%
COc1cccc(CNC(=O)c2c(OC)cc(=O)n3c2CCN(C(=O)C2CC24CCCCC4)CC3)c1 (stereo not drawn)	-4.6%
COc1ccccc1C1CN(CC(=O)N[C@H]2CCCCNC2=O)Cc2ccccc2O1 (stereo partly drawn)	16.4%
O=C1CC[C@H](O)CCN1[C@H](CSc1ccccc1)Cc1ccccc1	-9.0%
N[C@H](Cc1ccc(Cl)cc1)C(=O)O	10.2%
COc1ccc(C(C)=O)cc1	13.6%
Cc1nc2[nH]c(=O)[nH]c(=O)c2[nH]1	5.5%
COc1ccccc1CN1CCC2(CC1)CCN(C(=O)c1ccco1)CC2	-67.1%[inhibitor]
COc1ccc(CN2CC[C@H]3C=CC[C@@H](C(=O)Nc4ccc(Cl)cc4Cl)[C@H]3C2=O)cc1OC	17.9%
O=C(c1cc(-c2ccccc2)on1)N1CCOc2ccc(CN3CCN(c4ccccn4)CC3)cc2C1	-4.6%
O=C(NCc1ccccn1)c1cnn(-c2nccc(-c3cccs3)n2)c1C1CC1	-2.7%
Cc1ccc(O)c([C@H](CCN(C(C)C)C(C)C)c2ccccc2)c1	-5.3%
CN(Cc1ccco1)c1ncnc2ccc(-c3ccccc3C(F)(F)F)cc12	?
Cc1csc(SCC(=O)N2CCOc3ccc(C(O)C4CCCCC4)cc3C2)n1 (stereo not drawn)	?
COC(=O)C1N[C@@H]([C@@H](NC(=O)COc2ccccc2)C(=O)NCc2ccc(OC)cc2)SC1(C)C (stereo partly drawn)	-4.8%
CNC1(C)C2CCC(C2)C1(C)C (stereo not drawn)	-6.0%&-6.8%
COc1ccc(NC(=O)N2CCCC3(CCNCC3)C2)cc1	-52.4%[inhibitor]

Further compounds follow.
structure	EPAC1 agonist
C=C[C@@H]1c2cc(C)ccc2N(S(=O)(=O)c2ccc(C)cc2)[C@H](c2ccccc2)C1(C#N)S(=O)(=O)c1ccccc1 (stereo partly drawn)	?
CC(=O)SC[C@@H](C)C(=O)N1CCC[C@H]1C(=O)N[C@@H](Cc1ccccc1)C(=O)O	0.5%
OCCN(CCO)c1ccc(/C=C/c2ccnc3ccccc23)cc1	26.9%
c1ncc(-c2ccoc2)c(NC2CC2)n1	1.2%
CCCCCCCCCC(=O)OCC(CO)OC(=O)CCCCCCCCC (stereo not drawn)	-21.8%
COc1ccccc1-c1ccnc(-n2ncc(C(=O)NCCc3cccnc3)c2C)n1	4.9%
CCCCCN=c1ccn(Cc2ccccc2)c2ccccc12	5.3%
Cc1ccccc1-c1cc(NCc2ccccc2)ncn1	-12.1%
COc1cc(C(=O)NC2CCCNC2)cc(OC)c1OC (stereo not drawn)	10.9%
CN(C)c1ccc(/C=C/c2ccnc3c(-c4ccccc4)cccc23)cc1	?
CC(C)(O)C#Cc1ccc(CN2CCc3nnc(CNC(=O)c4cccc(F)c4)n3CC2)cc1	-21.2%
CC(=O)N[C@@H](C)C(=O)NCC1Cc2cc(C)cc(-c3cnccn3)c2O1 (stereo partly drawn)	-8.1%
Cc1cccc(-c2cnc(C)nc2C2CCCN(C(=O)c3cccc(Cn4cccn4)c3)C2)c1 (stereo not drawn)	2.7%
CN1CCN(c2ncnc3ccc(-c4ccccc4C(F)(F)F)cc23)CC1	-19.0%
COc1ccc(-c2nc3cnc(N(C)C)nc3n(-c3ccccc3)c2=O)cc1	-94.1%[inhibitor]
CN(C)c1ncc2nc(-c3cccs3)c(=O)n(C)c2n1	19.5%
C[C@@](N)(Cc1ccc(O)c(O)c1)C(=O)O	2.2%
CCCCCCCCCC[n+]1ccc(/C=C/c2c(C)[nH]c3ccccc23)cc1	25.1µM*
O=C(O)c1cc(=O)c2c(Cl)cc(Cl)cc2[nH]1	-5.7%&-18.9%&31.4%&-15.8%
COc1ccccc1CN1CCC2(CC1)c1ccccc1[C@@H](NC(=O)c1ccco1)[C@@H]2OC	-8.4%
Cc1cccnc1-c1cccc2c1OC(CNC(=O)C1CCCc3c1[nH]c1ccccc31)C2 (stereo not drawn)	?
O=S(=O)(O)CCS	-7.3%&16.8%
Cc1ccc2c(c1)CN(CCNC(=O)c1c(-c3ccccc3)noc1C)CC(C)O2 (stereo not drawn)	-4.3%
CC1(C)C2(Cl)C(Cl)C(Cl)C(Cl)(C(Cl)Cl)C1(Cl)C2Cl (stereo not drawn)	-20.8%
Cc1ccccc1-c1nc(NCc2cccs2)c2ccccc2n1	?
CC(=O)N1CCC2(CCN(Cc3ccncc3)CC2)CC1	-67.1%[inhibitor]
COc1cc(C)c(CN2C[C@H](Sc3nc4ccccc4[nH]3)C[C@H]2C(=O)N(C)C)cc1C	-20.7%
N#CCCn1c(=O)c(-c2ccc(Cl)cc2)nc2cnc(N3CCNCC3)nc21	-41.9%[inhibitor]
C#C[C@]1(O)CC[C@H]2[C@@H]3CCc4cc(O)ccc4[C@H]3CC[C@@]21C	-37.3%[inhibitor]
COCc1c(C(=O)N2CCC(N(C)C)C2)cnn1-c1ncc2c(n1)-c1ccccc1CCC2 (stereo not drawn)	-15.7%
COc1ccccc1CCC(=O)O	?
CCCCCCCC/C=C\C/C=C\C/C=C\CCCC(=O)O	-11.9%
Cc1cc2c(c(-c3cnccn3)c1)OC(CNC(=O)c1cc(Cl)ccc1F)C2 (stereo not drawn)	12.1%
COc1cc(=O)n2c(c1C(=O)N(C)Cc1nonc1C)CCN(C(=O)c1ccc(C)c(C)c1)CC2	-8.7%
COc1cc(C=C2CCC/C(=C\c3ccc(O)c(OC)c3)C2=O)ccc1O	?
NC(=O)c1cnccn1	-6.4%&-7.6%&18.1%
COc1cc(-c2coc3cc(O[C@H]4OC(CO)C(O)C(O)C4O)c(OC)c(O)c3c2=O)cc(O)c1OC (stereo partly drawn)	19.5%
Nc1[nH]c(=O)ncc1F	-12.5%
COc1ccc(-n2c(=O)c(CCc3ccccc3)nc3cnc(N4CCNCC4)nc32)cc1	2.6%
COc1cccc(-c2ccc(O)c(CNCc3cccc(OC)c3OC)c2)n1	-2.3%
CC(C)NC[C@@H](O)c1ccc(O)c(O)c1	2.9%
Cc1oc(-c2ccccc2NC(=O)C2CCC2)nc1CNC(=O)c1ccc2ccccc2c1	2.8%
COc1ccccc1C1CN(Cc2ccccc2O)Cc2ccccc2O1 (stereo not drawn)	-5.4%
CC(=O)[C@H]1CC[C@H]2[C@@H]3CC=C4C[C@@H](O)CC[C@]4(C)[C@H]3CC[C@]12C	-7.1%
COCCn1c(=O)c(-c2ccc(OC)cc2)nc2cnc(Nc3ccccc3)nc21	-18.8%
O=C(Oc1ccccc1)N1CCC2(CCCN(c3cccc(-c4ccccc4)c3)C2)CC1	?
Cc1c(C(=O)N(C)Cc2cccc3ncccc23)cnn1-c1nccc(-c2ccccc2F)n1	-5.0%
CC1=CCC2CC1C2(C)C (stereo not drawn)	-33.5%[inhibitor]
COc1ccccc1CNc1ccnc(-c2ccc3c(c2)OCO3)n1	100µM*
COc1ccccc1-c1ccc2ncnc(NCCNC(C)=O)c2c1	-31.8%[inhibitor]
COc1ccc(C(=O)N2CCC[C@@]3(CCN(Cc4ccccc4OC)C3)C2)cc1	22.9%
COc1cccc(-c2nccc(NCCc3c[nH]c4ccc(OC)cc34)n2)c1	?
CC(C)=CCC/C(C)=C/COc1c2occc2cc2ccc(=O)oc12	9.5%
